Screening data (PubChem BioAssay)
TRPML1 inh: qHTS for Inhibitors of the Human Mucolipin Transient Receptor Potential 1 (TRPML1). Mucolipin-1 (Homo sapiens), Q9GZU1. TRPML1-inducible cells, Ca2+ dye fluorescence, FDSS; active compounds read low; inhibition of EC80 agonist-evoked calcium signal. AID 624415, 2012. 390,000 compounds, 0.02% hits. activity change, negative = inhibition, % (no concentration beside the values); in the data active means activity change below about -50%; inconclusive means about -30% to -50%; inactive means above about -30%;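 note: stimulus is agonist 54-4 at its EC80 concentration; % is set by controls: 0 for no effect and ±100 for the full control effect; compound concentration not given in the record; the text of the record puts the active cut at -80%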
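Tet-induced TRPML1-DL cells loaded with Ca8 no-wash calcium dye were read kinetically on FDSS. Compound addition was followed by EC80 agonist 54-4 (4 uM final); inhibition was read over 110 s.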
CtBP-E1A blk: qHTS Assay for Inhibitors of the CtBP/E1A Interaction; CtBP / adenovirus E1A interaction (AlphaScreen); AlphaScreen GST-E1A/His-CtBP binding, 1536-well; active compounds read low; control for the full effect not named in the record; activity change, % (concentration not given with the values); 340,000 compounds, 0.49% hits; in the data active means activity change below about -65%; inconclusive means about -30% to -65%; inactive means above about -30%; note: % is set by controls: 0 for no effect and ±100 for the full control effect
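Protein mix (5X: 125 nM each GST-E1A, His-CtBP) was incubated with pinned compound 2 h at 37 deg C in dark, in 50 mM Tris pH 8.0 buffer with 300 mM NaCl. Glutathione donor and nickel acceptor beads followed; AlphaScreen signal read after 1 h.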
TRPV1 potentiator: HTS Assay for Compounds that Act as Potentiators of the Vanilloid Receptor 1; Transient receptor potential cation channel subfamily V member 1 (Homo sapiens), Q8NER1; TRPV1-expressing cells, Fluo-8 calcium influx, capsaicin EC20 potentiation; host cell line not named in the record; control for the full effect not named in the record; potentiation, % at 8.33 µM; 320,000 compounds, 0.02% hits; AID 540277, 2011; active means potentiation above 80%; inconclusive means 30% to 80%; inactive means below 30%; note: 0% is about no effect
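TRPV1-expressing cells were cultured overnight at 35.5C and loaded with Fluo-8 calcium dye for 40 to 90 min at room temperature. After a 10 s baseline, compound was added and calcium influx was read kinetically for 3 min (ex 480/em 520 nm).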
Six1-Eya2 blk: qHTS Assay for Inhibitors of the Six1/Eya2 Interaction; Homeobox protein SIX1 (Homo sapiens) + Protein phosphatase EYA2 (Homo sapiens), …; AlphaScreen GST-Six1/His-Eya2 binding, biochemical; active compounds read low; control for the full effect not named in the record; activity change, % (no concentration beside the values); 360,000 compounds, 0.56% hits; in the data active = activity change below about -65%; inconclusive = about -30% to -65%; inactive = above about -30%; note: % is set by controls: 0 for no effect and ±100 for the full control effect
Target sequence (O00167 whole entry, looked up): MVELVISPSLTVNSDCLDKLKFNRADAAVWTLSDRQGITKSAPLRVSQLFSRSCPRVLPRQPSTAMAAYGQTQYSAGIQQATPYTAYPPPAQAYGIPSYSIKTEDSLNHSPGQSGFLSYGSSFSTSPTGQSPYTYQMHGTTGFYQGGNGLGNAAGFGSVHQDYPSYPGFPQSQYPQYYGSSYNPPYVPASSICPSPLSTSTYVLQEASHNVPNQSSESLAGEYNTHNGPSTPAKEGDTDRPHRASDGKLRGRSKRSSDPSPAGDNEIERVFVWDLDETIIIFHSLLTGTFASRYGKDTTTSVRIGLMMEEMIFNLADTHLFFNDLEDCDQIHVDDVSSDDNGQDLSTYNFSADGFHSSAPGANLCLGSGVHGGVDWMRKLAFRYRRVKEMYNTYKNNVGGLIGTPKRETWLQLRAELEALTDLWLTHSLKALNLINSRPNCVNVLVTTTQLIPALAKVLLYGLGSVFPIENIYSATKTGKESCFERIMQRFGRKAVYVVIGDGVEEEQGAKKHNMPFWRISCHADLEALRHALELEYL
Target sequence (Q15475 whole entry, looked up): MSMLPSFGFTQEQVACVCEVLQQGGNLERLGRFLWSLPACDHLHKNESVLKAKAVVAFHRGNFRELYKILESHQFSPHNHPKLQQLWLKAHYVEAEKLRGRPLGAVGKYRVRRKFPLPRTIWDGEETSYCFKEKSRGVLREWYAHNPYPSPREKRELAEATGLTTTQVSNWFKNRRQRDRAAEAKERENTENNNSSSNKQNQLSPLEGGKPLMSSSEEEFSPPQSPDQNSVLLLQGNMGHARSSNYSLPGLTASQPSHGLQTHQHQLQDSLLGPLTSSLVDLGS
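AlphaScreen luminescence read after one hour at 37 °C in darkness. Pin-transferred compounds met GST-Six1 and His-Eya2 protein (5X stock 250 nM/500 nM) plus glutathione donor and Ni-chelate acceptor beads (5X, 50 ug/mL).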
D2 potentiator: Beta-Arrestin HTS for Positive Allosteric Modulators of the Human D2 Dopamine Receptor: Potentiators | potentiation, % (no concentration beside the values) | D(2) dopamine receptor (Homo sapiens), P14416 | AID 624464, 2012 | 360,000 compounds, 0.23% hits | DiscoveRx D2 beta-arrestin cells, luminescence, 90 min; 100% = 57 uM dopamine signal; active = potentiation of 50% or more; inconclusive = 30% to 50%; inactive = 30% or less;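 note: compound concentration not given in the record; tested on top of an EC20 dose of dopamine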
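D2 cells co-treated with compound plus 50 nM dopamine (EC20) for 90 min at 37 deg C to detect potentiation. Beta-arrestin recruitment was read as enzyme-fragment luminescence after 1 h at ambient temperature. Full response was set by 57 uM dopamine.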
TRPML1 ag: qHTS for Agonists of the Human Mucolipin Transient Receptor Potential 1 (TRPML1). Mucolipin-1 (Homo sapiens), Q9GZU1. AID 624414, 2012. TRPML1-expressing cells, Ca2+ dye fluorescence, FDSS; host cell line not named in the record; reference of the full effect not given here. 410,000 compounds, 0.12% hits. activation, % (test concentration not listed); in the data active = activation above about 50%; inconclusive = about 30% to 50%; inactive = below about 30%; note: 0% is about no effect; the text of the record puts the active cut at 80%
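Agonist activity was taken from a 110 s kinetic Ca2+ dye read on the FDSS after pinning compounds onto TRPML1-DL cells. The cells were seeded at 1,500/well with Tet inducer, incubated about 16 h, then dye-loaded at room temperature.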
An asterisk follows results filed as active; ? = inconclusive; / = no result given.

SMILES	TRPML1 inh	CtBP-E1A blk	TRPV1 potentiator	Six1-Eya2 blk	D2 potentiator	TRPML1 ag
Cc1c(NS(=O)(=O)c2ccc3c(c2)c(=O)n(C)c(=O)n3C)c(=O)n(-c2ccccc2)n1C	1	5	11	2	-2	-0.6
CC(=O)N[C@@H](Cc1ccc(O)cc1)CN1C(N)=NC[C@@H]1CC(C)C	1	3	-23	0	-10	-0.4
Cc1occc1C(=O)N/N=C/c1ccc[nH]1	-7	4	/	0	8	-0.6
Cc1ccc2nc3nc(NCC4CCCO4)c(C(=O)NC4CCCC4)cc3c(=O)n2c1 (stereo unspecified)	30	11	-7	-3	-18	0.0
CC(C)[C@H](NC(=O)[C@@H]1Cc2ccccc2CN1)C(=O)Nc1ccc2c(c1)OCCO2	19	3	7	10	-35	0.1
O=C(COC(=O)CCC(=O)c1ccc(F)cc1)NCCc1ccccc1	2	2	/	3	-3	0.1
COc1ccc(-c2nc(CS(=O)(=O)CC(=O)NC3CCCCC3C)c(C)o2)cc1 (stereo unspecified)	12	2	-5	2	-5	-1.0
CCc1c(C)nc2ncnn2c1NCCc1ccc(Cl)cc1	52	-15	-22	-4	-6	-0.6
COc1cc(F)ccc1-c1cc(C(=O)NCC2CCCCC2)[nH]n1	/	-15	/	-6	-9	-0.8
Cc1ccc(S(=O)(=O)N2CCN(C(=O)CN3C(=O)NC(C)(CCC(C)C)C3=O)CC2)c(C)c1 (stereo unspecified)	31	-12	/	-2	0	1.0
O=C1c2ccccc2C(Nc2ccc(-c3nc4ccccc4[nH]3)cc2)N1Cc1ccco1 (stereo unspecified)	-9	-22	18	-28	-2	-0.3
Cc1cccc(C)c1NC(=O)C1CCCN1S(=O)(=O)c1ccc(-c2ccc(=O)[nH]n2)s1 (stereo unspecified)	-6	-1	4	2	1	-1.1
COC(c1ccc(Cl)cc1)(c1ccc(Cl)cc1)C(Oc1nc(C)cc(C)n1)C(=O)O (stereo unspecified)	/	/	3	-2	21	/
CCC(C)c1ccc(NC(=S)NC2CCN(Cc3ccccc3)CC2)cc1 (stereo unspecified)	1	-11	-16	0	-35	4.2
Cc1sc(NC(=O)CN(Cc2ccc(F)cc2)C(=O)C(C)(C)C)c(C(N)=O)c1C	-3	7	-3	4	-6	-0.4
CCOc1ccc(-n2cc(-c3ccccc3)c3c(N4CCOCC4)ncnc32)cc1	-9	-14	3	?	?	0.1
COc1ccc(/C=N/NC(=O)c2ccc(-c3ccccc3)cc2)cc1O	-13	3	-10	-1	-10	0.7
CC(C)(C)C1=CC(=Nc2ccccc2N)C=C(C(C)(C)C)C1=O	-6	-79*	6	-81*	-49	1.8
CCNC(=O)C1(C)CCN(C(=O)c2cccnc2SC)C1 (stereo unspecified)	/	6	/	1	1	-0.5
Cc1nc2ccccc2nc1OCC(=O)Nc1ccccc1	11	7	3	1	1	-0.8

5 entries from above, as comma-separated lines.
structure,TRPML1 inh,CtBP-E1A blk,TRPV1 potentiator,Six1-Eya2 blk,D2 potentiator,TRPML1 ag
O=C1c2ccccc2C(Nc2ccc(-c3nc4ccccc4[nH]3)cc2)N1Cc1ccco1 (stereo unspecified),-9,-22,18,-28,-2,-0.3
Cc1c(NS(=O)(=O)c2ccc3c(c2)c(=O)n(C)c(=O)n3C)c(=O)n(-c2ccccc2)n1C,1,5,11,2,-2,-0.6
Cc1nc2ccccc2nc1OCC(=O)Nc1ccccc1,11,7,3,1,1,-0.8
Cc1ccc(S(=O)(=O)N2CCN(C(=O)CN3C(=O)NC(C)(CCC(C)C)C3=O)CC2)c(C)c1 (stereo unspecified),31,-12,/,-2,0,1.0
CCC(C)c1ccc(NC(=S)NC2CCN(Cc3ccccc3)CC2)cc1 (stereo unspecified),1,-11,-16,0,-35,4.2

Additional results follow.
SMILES	TRPML1 inh	CtBP-E1A blk	TRPV1 potentiator	Six1-Eya2 blk	D2 potentiator	TRPML1 ag
Cc1ccc(C(C(=O)NC2CCCCC2)N(CCCN2CCOCC2)C(=O)c2snc(C(N)=O)c2N)cc1 (stereo unspecified)	6	-7	10	-6	-19	-0.1
CC(C)(Sc1cc(C(C)(C)C)c(O)c(C(C)(C)C)c1)Sc1cc(C(C)(C)C)c(O)c(C(C)(C)C)c1	24	6	-4	-1	-8	-0.3
CCCS(=O)(=O)NC(=O)C1(C)CCCN(C(=O)c2ccc3ccccc3c2)C1 (stereo unspecified)	/	-7	/	6	-2	-0.2
CCOC(=O)C(C)n1nc(/C=C/c2ccc(OC)cc2)ccc1=O (stereo unspecified)	3	3	-25	11	3	1.9
Cc1c(C)n(CCc2ccccc2)c2ncnc(NCCCO)c12	13	/	-6	-12	-2	1.4
CCOC(=O)c1c(C)[nH]c(C)c1C(=O)COC(=O)/C=C/c1cccc([N+](=O)[O-])c1	-8	-10	/	-20	-4	-0.8
Cc1ccc(C(=O)Nc2cnc3sc(C)nn3c2=O)cc1	3	4	7	-7	-15	-0.8
S=C(NCc1ccc(Cl)cc1)Nc1ccccc1Cl	-2	0	-8	-3	-5	1.9
COc1cccc(NC(=O)N2CCN(c3ccc(C(F)(F)F)cn3)CC2)c1	-12	3	-33	-17	-2	-0.2
Cc1cccc(Cl)c1NC(=O)N1CCN(c2ccnc3cc(Cl)ccc23)CC1	36	/	-22	3	2	3.2
O=C(N/N=C/c1ccc(Cl)s1)C(O)c1ccccc1 (stereo unspecified)	11	-6	-5	0	-2	2.2
CCOC(=O)C1CCN(C(=O)Cc2cccs2)CC1	13	5	-4	1	-4	-0.7
ClC1=CN(C2=NCCC2)CC1	/	7	/	0	-24	-0.8
CC(=O)c1ccc(N2CCN(C(=O)c3ccc(S(=O)(=O)NCc4ccco4)cc3)CC2)cc1	7	-7	/	-9	-1	0.9
CCOC(=O)C(=O)N1CCC(Cc2ccccc2)CC1	-1	-20	-12	4	-3	-0.9
CCOc1cc(/C=C2/C(=O)N(c3ccccc3)N=C2C)ccc1OC(=O)c1cccs1	6	19	30	20	-7	0.5
O=C(CCCNS(=O)(=O)c1ccc(F)cc1)Nc1ccc(F)cc1	-19	3	7	2	-6	-0.1
COc1ccc(C(=O)Cn2c(NCCO)nc3ccccc32)cc1	-1	3	4	8	-13	-0.1
CCCCNC(=O)/C=C/c1cccs1	-6	12	2	10	-14	0.0
CC(=O)N1CCN(c2ccc(NC(=O)c3ccc(F)cc3)cc2)CC1	-3	/	6	-10	-9	-0.1
CSc1nc2c(c(=O)[nH]1)C(c1ccc(Cl)cc1)CC(=O)N2 (stereo unspecified)	-2	19	2	0	-10	0.5
COc1ccc(OC)c(-c2csc(NC(=O)Cc3cccs3)n2)c1	7	-1	0	-8	-24	-0.2
CCOC(=O)c1cc(NC(=O)N2CCCc3ccccc32)c(C)nc1C	-7	-4	-10	0	-8	-0.3
O=C(COC(=O)CN1C(=O)NC2(CCCCC2)C1=O)Nc1cc(F)ccc1F	0	-4	/	6	-4	-0.5
Cc1c(C(=O)OCC(=O)NC2CCCCC2)oc2ccccc12	1	2	-6	5	2	0.7
CC(C)C(=O)Nc1cccc(NC(=S)NC(=O)c2ccc(Cl)cc2)c1	-4	-2	13	-2	-16	1.2
CN(C)c1nc(NNC(=O)c2ccccc2)nc(N(C)C)n1	1	-8	/	0	-7	0.6
O=C(Nc1ccc2c(c1)CCC2)c1cc(S(=O)(=O)N2CCN(c3ccccc3)CC2)ccc1Cl	30	-3	2	-9	-7	3.4
C=C(C)c1cccc(C(C)(C)NC(=O)Nc2ccc(OC)cc2)c1	7	8	-8	-1	-3	0.4
O=c1[nH]cnc(O)c1C1C=CC=CC=C1	-10	0	/	11	-4	-0.4
COc1cc(/C=N/NC(=O)CCNC(=O)c2ccccc2Cl)ccc1O	-1	/	-12	-23	-11	-0.3
Cc1sc(NC(=O)CCCC(=O)O)c(C#N)c1C	16	-6	1	-3	-2	0.0
COc1ccc2[nH]c(-c3cccc(F)c3)cc(=O)c2c1	-7	5	24	6	0	-0.3
Cc1c2ccccc2cc[n+]1CCCS(=O)(=O)[O-]	11	-5	13	-2	-7	-0.2
Cc1cc(C(=O)NNC(=O)c2cccc(S(=O)(=O)N3CCOCC3)c2)c2ccccc2n1	-5	2	-19	-3	0	-0.1
CCOC(=O)c1cnc(SCC(=O)NNC(=O)c2ccco2)nc1N	-7	-2	14	6	-1	0.3
CCn1cc(/C=C(\NC(=O)c2cc(OC)c(OC)c(OC)c2)C(=O)NCCN2CCOCC2)c2ccccc21	11	-8	12	-12	-19	-0.2
O=c1c2c(O)cc(O)cc2oc2c(O)ccc(O[C@H]3O[C@@H](CO)[C@H](O)[C@@H](O)[C@@H]3O)c12	-10	-3	/	-8	?	-0.8
CC(=O)Nc1cccc(Oc2ccc(-c3noc(C)n3)cc2)c1	-5	0	4	19	-3	1.3
O=C(NCc1ccco1)C1CCN(S(=O)(=O)c2cccc3cccnc23)CC1	23	-14	/	7	-8	-0.3
Nc1c(NCCN2CCOCC2)c2ccccc2oc1=O	11	-3	13	-6	4	0.3
CCCCCn1c(=O)c2ccccc2n2c(=S)[nH]nc12	32	/	?	-13	-11	1.6
Cc1cccn2c(=O)c3cc(C(=O)NCCCN4CCCC4=O)n(C)c3nc12	-12	-12	15	-13	2	0.0
CCC(CC)c1nnc(NC(=O)CS(=O)(=O)c2ccc(C)cc2)s1	36	-2	7	-14	-3	-0.1
Clc1ccc(NNc2ccnc3cc(Cl)ccc23)cc1	3	?	-5	?	12	0.0
CCOC(=O)N1CCN(CC(O)c2ccc3c(c2)CCN3)CC1 (stereo unspecified)	?	-2	-6	1	-16	0.5
O=C(/C=C/c1ccco1)N1CCN(c2ccccc2)CC1	1	3	-25	-4	-3	-0.1
CCOC(=O)C1CC2=C(CCCC2=O)NC1=O (stereo unspecified)	-2	6	/	0	-4	-0.4
CC(C)N(C(=O)COC(=O)[C@H](C)NC(=O)c1ccco1)c1ccccc1	22	/	5	1	-1	3.8
O=C(NNc1cccc(Cl)n1)Nc1ccccc1Cl	36	3	9	5	-7	0.2
OCCNCC12CC3CC(CC(C3)C1)C2	7	-16	-1	2	-9	-0.3
O=C(Nc1ccccc1N1CCCC1)c1ccc([N+](=O)[O-])o1	17	-21	12	-10	-19	0.4
Cc1csc(NC(=O)c2ccc3c(=O)n4c(nc3c2)CCCCC4)n1	-5	?	-1	-26	4	0.3
O=C(NCc1ccco1)c1noc2c1CCCCC2	10	3	-1	-2	2	-0.5
CCN(CC)S(=O)(=O)c1ccc(C(=O)OCn2c(SC)nnc(C)c2=O)cc1	2	16	14	-1	7	-0.5
O=C1C2CC=CCC2C(=O)N1Cc1ccccc1 (stereo unspecified)	6	-3	5	7	3	-0.2

Hits appear at their usual frequency. Share with any hit: about 0.95%.
